rRNA inh HTS: inhibitors of bacterial rRNA selective over humanized ribosomes; actives 1.6% (n = 350,000); GFP signal change (wild-type ribosome), % (test concentration not listed); AID 720706; E. coli WT GFP vs humanized-ribosome RFP mutants, fluorescence, 24 h; hits give low values; DMSO median 0, no signal -100;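 active means significant combined selectivity score with lowered wild-type GFP, culture density cut under 30%, mutant RFP and density less affected; inactive means any of these conditions unmet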; further: one replicate is shown; some compounds called inactive have numbers as strong as hits
ALR H2O2 inh: inhibitors of human sulfhydryl oxidase ALR; actives 3.8% (n = 290,000); P55789; purified ALR, DTT oxidation, H2O2 HRP-luminol luminescence; inhibition, % (no concentration beside the values);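 active means mean and each replicate at 75% or more; inconclusive means only one of the two met; inactive means neither met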;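 further: stock transfer was 7.5 nL into about 7.5 µL; 0% = neutral wells and 100% = wells with inactivated enzyme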
B2AR ag: activates human beta-2 adrenergic receptor causing internalization; P07550; Am2.2-beta2AR cells, FAP receptor internalization, flow cytometry; reference of the scale not given here; response, % (no concentration beside the values); actives 0.43% (n = 340,000); AID 504454;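 active means response above a set limit, near 3 SD of response in nonfluorescent compounds, cut at about 42% in these data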;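 further: stock transfer was 100 nL into about 11 µL; a reference agonist was the positive control; negative values mostly stem from fluorescent compounds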
A1 inh: inhibitors of the anti-apoptotic protein A1, read as caspase activation | MEF A1-2A-BIM cells, Caspase-Glo 3/7 luminescence, 3 h; percent of clofoctol response, vehicle zero | caspase activation, % (concentration not given with the values) | actives 0.066% (n = 330,000);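 active means over half of replicate activation scores above 10%, or exactly half above 10 with the replicate mean above 10; inconclusive means replicate mean below 10 yet half the replicates above 10; inactive means over half of replicates below 10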;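 further: wells of about 30 µL received 50 nL stock; many hits fall short of the cut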
T cruzi inh: blocks replication of Trypanosoma cruzi. T. cruzi beta-gal in NIH3T3, luminescence, 90 h. actives 1.4% (n = 300,000). inhibition, % (test concentration not listed). AID 1885;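 active means mean inhibition across valid replicates above about 55%, limit read from the data; inconclusive means mean below that limit but half or more replicates reach it; inactive means mean below it, under half of replicates reach it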;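 further: signal also drops with host cell toxicity which is not excluded here; 0% = plate median of DMSO wells and 100% = zero luminescence signal; higher percent means less beta-gal luminescence so fewer parasites; stock transfer was 50 nL into about 50 µL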
LANA-H2A inh: blocks KSHV LANA binding to histone H2A/H2B; Q9QR71; cell-free LANA-H2A/H2B peptide, fluorescence polarization; inhibition, % (no concentration beside the values); actives 0.6% (n = 320,000); AID 2629; in the data active means inhibition mostly above about 10%, no sharp cut-off; inactive means mostly below about 6.7%;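 further: stock transfer was 7.5 nL into about 10 µL; 0% = median of vehicle wells and 100% = median of positive control wells; one replicate is shown; the record names a cut of 25% in any replicate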
Target sequence (Q9QR71 whole entry, looked up): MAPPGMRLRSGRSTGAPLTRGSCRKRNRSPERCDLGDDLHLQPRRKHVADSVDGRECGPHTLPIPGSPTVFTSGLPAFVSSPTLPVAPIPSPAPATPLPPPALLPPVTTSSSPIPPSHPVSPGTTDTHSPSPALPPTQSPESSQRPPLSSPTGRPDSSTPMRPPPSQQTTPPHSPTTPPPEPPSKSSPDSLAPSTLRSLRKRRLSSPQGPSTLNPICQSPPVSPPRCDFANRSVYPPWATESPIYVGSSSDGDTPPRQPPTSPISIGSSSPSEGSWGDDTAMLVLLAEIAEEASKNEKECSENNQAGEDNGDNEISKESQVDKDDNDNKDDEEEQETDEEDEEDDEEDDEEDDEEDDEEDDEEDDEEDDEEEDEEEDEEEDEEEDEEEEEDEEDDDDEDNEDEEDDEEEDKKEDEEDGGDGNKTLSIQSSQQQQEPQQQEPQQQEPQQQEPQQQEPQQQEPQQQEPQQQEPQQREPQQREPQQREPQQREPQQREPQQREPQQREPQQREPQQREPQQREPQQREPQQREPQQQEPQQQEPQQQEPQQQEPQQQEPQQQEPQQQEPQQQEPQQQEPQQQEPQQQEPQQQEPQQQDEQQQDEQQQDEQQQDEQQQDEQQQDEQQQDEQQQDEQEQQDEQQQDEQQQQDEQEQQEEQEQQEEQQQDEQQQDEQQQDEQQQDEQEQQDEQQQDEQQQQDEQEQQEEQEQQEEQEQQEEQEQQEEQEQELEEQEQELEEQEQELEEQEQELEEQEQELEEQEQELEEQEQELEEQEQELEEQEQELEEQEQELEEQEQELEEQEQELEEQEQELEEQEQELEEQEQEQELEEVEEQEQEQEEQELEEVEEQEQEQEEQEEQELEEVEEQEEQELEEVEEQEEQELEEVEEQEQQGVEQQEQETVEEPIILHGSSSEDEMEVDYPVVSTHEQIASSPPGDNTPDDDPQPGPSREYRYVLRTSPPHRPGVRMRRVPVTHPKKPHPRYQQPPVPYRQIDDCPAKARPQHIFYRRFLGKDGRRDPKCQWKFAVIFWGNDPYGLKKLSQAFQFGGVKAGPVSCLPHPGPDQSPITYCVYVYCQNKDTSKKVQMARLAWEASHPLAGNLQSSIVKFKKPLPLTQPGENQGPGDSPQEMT
Calb FLC: C. albicans growth modulation with fluconazole; C. albicans CaCi-2 (fluconazole-resistant clinical isolate) + fluconazole, Alamar Blue growth, 48 h; actives 0.57% (n = 300,000); growth inhibition, % (no concentration beside the values);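 active means most replicates above 75%; inconclusive means exactly half above 75%; inactive means most below 75%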;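 further: all wells also contain fluconazole at 8 µg/ml as a sub-toxic cotreatment; 0% = median of DMSO wells and 100% = median of geldanamycin control wells; wells of about 8 µL received 7.5 nL stock; the first replicate is given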
Beta apoptosis: beta cell apoptosis inhibition | INS-1E cytokine-induced death, ATP luminescence, 48 h; percent of positive-control rescue, neutral wells zero | actives 0.8% (n = 300,000) | protection from apoptosis, % (concentration not given with the values);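 active means all replicates at 75% or more, or half of them and the mean; inconclusive means half reach 75% but not the mean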;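 further: 0% = cytokine-treated negative control wells and 100% = positive control rescue; higher means more ATP so stronger rescue from cytokine killing; wells of about 40 µL received 100 nL stock; the first replicate is given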
rRNA inh HTS OD600: also measured in rRNA inh HTS; calls as there; OD600 change, %; measured here: OD600 growth;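 optical density of the mix in the first replicate; 0 = DMSO median and -100 = no signal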
rRNA inh HTS RFP: recorded beside rRNA inh HTS, whose call it bears; RFP signal change, %; measured here: RFP humanized mutant strains;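 first replicate; 0 = DMSO median and -100 = no signal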
An asterisk follows results filed as active; u = inconclusive; x = no result given. Some of the compounds tested, so the mix of outcomes need not match the whole.

SMILES	rRNA inh HTS	rRNA inh HTS OD600	rRNA inh HTS RFP	ALR H2O2 inh	B2AR ag	A1 inh	T cruzi inh	LANA-H2A inh	Calb FLC	Beta apoptosis
O=S(=O)(c1ccc(F)cc1)n1ccc(-c2cccc(OCc3c(F)cccc3Cl)c2)n1	x	x	x	13	-1	0.5	33	5.6	2	9
O=C(CSc1ccccc1[N+](=O)[O-])NC1CCS(=O)(=O)C1 (configuration not stated)	x	x	x	7	-5	0.6	-1	0.2	-6	x
Cn1cc(Cl)c(C(=O)N2CCN(c3ncccn3)CC2)n1	x	x	x	-1	-11	0.0	2	-6.7	-10	-3
CCc1ccc(C2C(C#N)=C(N)N(N3CCOCC3)C3=C2C(=O)CC(C)(C)C3)s1 (configuration not stated)	5	14	-0.1	10	6	0.3	-19	-0.7	-2	-7
COc1ccccc1CSc1ncc(-c2ccc([N+](=O)[O-])cc2)[nH]1	-6	5	-6.3	-12	-5	0.2	-8	-4.4	29	1
COc1ccc(-c2ncncc2-c2ccccc2)c(O)c1	-8	-10	-0.3	7	x	-0.1	24	-0.8	9	-13
CCn1c(O)c(C=Nc2ccccc2)sc1=O	4	9	-8.4	2	-12	-3.8	17	2.0	45	-1
COc1ccc(S(=O)(=O)N2CCC(C(=O)NCCCN3CCOCC3)CC2)cc1	10	12	1.2	6	8	0.7	-13	1.7	1	-2
CN(c1ccccc1)S(=O)(=O)c1cccc(NC(=O)c2ccc(=O)[nH]c2)c1	-1	-3	0.7	x	-3	1.6	x	6.6	x	5
COc1ccc(CC(=O)c2ccccc2C(=O)O)cc1	x	x	x	-3	-4	-0.7	u	-2.9	30	1
O=C(COC(=O)Cc1ccc(Cl)cc1)Nc1ccc2[nH]c(=O)[nH]c2c1	2	8	3.2	-3	-1	0.2	-7	-0.6	x	-6
Cn1c(=O)c(C(=O)NC2CCCCCC2)c(O)c2ccccc21	9	5	-1.8	7	8	0.9	-8	-2.8	0	-1
Cc1ccc([N+](=O)[O-])cc1N=C(c1ccc([N+](=O)[O-])cc1)N1CCOCC1	6	0	-6.6	-2	4	1.1	13	2.7	-4	0
CC(C)C(NC(=O)OCc1ccccc1)C(=O)OCC(=O)N1C(C)CCCC1C (configuration not stated)	x	x	x	-13	-3	0.0	34	4.5	-13	-3
Cn1c(=O)cc(SCC(=O)N2CCCC2)c2cc(Cl)ccc21	x	x	x	-6	-23	0.4	53	1.1	1	4
Cc1ccccc1NC(=O)c1cc(N)ccc1N1CCCCC1	x	x	x	60	7	-0.4	0	-2.5	4	-6
CC(C)(C)c1ccc(C(=O)NCC(=O)N2CCNC(=O)C2)cc1	5	4	-2.2	-2	13	0.0	-2	-3.5	5	2
C=CCN1C(c2ccccc2)=CS/C1=C(\C#N)c1nnc2n1CCCCC2	x	x	x	9	-4	0.5	12	-5.4	-2	-7
Cc1ccc(NC(=O)CSc2ccc(-c3ccccn3)nn2)cc1	12	14	-1.0	2	0	-0.4	31	-1.8	41	0
CCOC(=O)/C(C#N)=C/c1ccc(OC(=O)c2ccco2)c(OCC)c1	-8	-20	-5.8	-7	10	0.0	-23	-3.5	1	0
CCCC[n+]1ccn(-c2nc3ccccc3nc2[N-]S(=O)(=O)c2ccc(C)cc2)c1	-16	-8	2.5	-4	2	-0.2	12	-6.6	-1	-2
COc1ccc(CN2C(=O)c3cccnc3C2=O)cc1S(=O)(=O)NCc1ccccc1	7	14	-0.9	-7	0	1.0	-9	4.6	-5	-7
CC1CCc2c(sc(NC(=O)c3cccn3C)c2C(N)=O)C1 (configuration not stated)	x	x	x	0	-8	-2.5	x	5.6	x	-4
COc1ccc(CCNC(=O)C2CC(=O)N(C3CCCC3)C2)cc1OC (configuration not stated)	x	x	x	0	6	-0.6	-19	5.1	-1	2
CC(=O)Nc1ccc(-n2c(C)nc(=O)c(-c3ccccc3)c2C)cc1	x	x	x	-2	2	-0.4	1	1.1	-4	-7
Cc1ccc(CNS(=O)(=O)c2ccc(C(F)(F)F)cc2)n1C	18	18	2.1	-12	0	0.3	-8	-3.7	2	-4
CCN(CC)C(=O)Cn1cc(C(=O)C(=O)N(CC)C2CCCCC2)c2ccccc21	1	6	0.0	-2	-10	0.0	9	1.6	-16	8
CCCc1nc2ccccc2n1C(=S)SC	-36	-56	-9.5	3	-1	1.2	-7	-1.9	-17	-6
COc1cc(CN2CCNC(=O)C2CC(=O)NCCCN2CCOCC2)cc(OC)c1 (configuration not stated)	3	8	-2.8	0	11	-1.3	-29	0.0	0	x
COc1ccc(-c2cc(C3CCN(C(=O)OC(C)(C)C)CC3)[nH]n2)cc1	-48	-40	-14	-3	3	-0.3	-5	0.1	-7	-5
COc1ccc(Cl)cc1NC(=O)CS(=O)(=O)c1cccc2nsnc12	x	x	x	-11	-4	0.0	-6	-3.1	-4	0
O=C(Cn1nc(C(=O)O)c2ccccc2c1=O)NCCC1=CCCCC1	x	x	x	-4	-6	1.6	-11	-3.6	3	5
CC(C)NC1CS(=O)(=O)CC1O (configuration not stated)	2	10	0.7	-1	-6	-0.2	-20	1.1	-2	x
CCOC(=O)C1CCCN(C(=O)/C=C/c2ccccc2[N+](=O)[O-])C1 (configuration not stated)	x	x	x	0	-3	0.1	-13	1.1	4	-6
CCOC(=O)CN1C(=O)N[C@@H](c2cccs2)C(C(C)=O)=C1C	9	-7	-4.8	-10	-1	-0.9	-25	-1.3	-8	7
COc1ccc(C(CNC(=O)c2ccc(S(=O)(=O)N3CC(C)CC(C)C3)cc2)N(C)C)cc1 (configuration not stated)	x	x	x	-11	16	0.5	x	1.7	x	6
O=C(CCCCn1c(=O)[nH]c2ccccc2c1=O)NCCc1c[nH]c2ccccc12	-4	-8	2.9	38	-6	-0.5	-12	1.3	2	3
CC(=O)OCc1cc2cccc(C)c2[nH]c1=O	x	x	x	-4	-2	0.3	-17	-0.1	1	4
COc1ccc(OC)c(/C(O)=C/C(=O)C(=O)Nc2ccccc2OC)c1	x	x	x	0	8	1.2	13	2.1	2	x
Cc1ccccc1NC(=O)c1cc([N+](=O)[O-])ccc1NCCN1C(=O)CCC1=O	1	-2	-1.8	x	-1	1.0	-8	-0.2	9	-10
O=c1[nH]c(/C=C/c2cccc(Br)c2)nc2ccccc12	13	4	1.2	-2	-1	-4.2	-7	2.0	4	58
O=C1CC[C@@H](OCc2ccccc2)CCN1CC[C@H](Sc1ccccc1)c1ccccc1	5	1	-6.9	1	-10	-0.4	21	-2.2	3	-1
Cc1ccc(O)c(NC(=S)NC(=O)/C=C/c2ccco2)c1	-14	-9	4.4	30	-6	0.5	-5	0.2	-9	-11
Cc1ccc2cc(/C=N/NC(=O)[C@@H]3CCCN3)c(Cl)nc2c1	-3	-3	7.1	5	2	-0.6	5	-2.0	1	x
O=C(Nc1ccccn1)c1cccc(S(=O)(=O)N2CCCC2)c1	x	x	x	-17	-6	0.1	-3	5.6	-4	-5
Cc1ccc(S(=O)(=O)NCC(=O)OCc2cc(=O)oc3cc(C)ccc23)cc1	-8	1	0.7	-4	0	2.3	x	-497	x	-2
Cc1ccc(C(=O)Nc2cccc3cccnc23)cc1C	2	7	-4.8	14	1	-2.3	-12	-1.2	6	7
CC(=O)Nc1ccc(C(=O)Nc2nnc(CCc3ccccc3)s2)cc1	10	5	-1.5	-5	1	-1.9	0	-1.4	23	-1
O=C1OCCN1C(=O)[C@H]1[C@H](c2ccc([N+](=O)[O-])cc2)C(c2cccc(Cl)c2)=NN1c1ccccc1	9	25	-6.9	-1	-6	0.4	5	-2.1	18	2
Cc1cccc(CNS(=O)(=O)c2ccc(-c3cnc(C4CC4)o3)cc2)c1	-29*	-23*	-6.2*	2	-14	1.0	8	-0.2	1	-2
COc1ccc([C@@]2(O)c3c(ccc(CC=C(C)C)c3O)NC(=O)[C@@H]2OC)cc1	-28	-56	6.4	2	-24	-1.1	12	8.6	6	-2
CC(=O)Nc1ccc(NC(=O)c2ccc(NC(=O)c3ccccc3)cc2)cc1	13	13	5.6	-2	1	-0.4	-7	-4.1	1	-1
O=C(CSc1ncn[nH]1)Nc1c(F)cc(F)cc1Br	x	x	x	-5	3	0.1	10	7.5	11	-7
CCCCN1C(=O)/C(=C2/Sc3ccc(OC)cc3N2CC)SC1=S	x	x	x	-6	6	0.3	22	-4.0	-3	x
CCOc1c2ccc(C(=O)NCc3ccco3)cc2nn1CCOC	5	10	7.9	17	-1	0.4	-7	-1.3	6	-3
O=C(O)CCC(=O)N1CCC(C(=O)c2cccc(Cl)c2)CC1	7	2	-5.9	-7	7	-0.2	-6	1.5	-3	-3
CCc1cccc(OCC(=O)Nc2ccc(S(=O)(=O)N3CCCC3)cc2)c1	-25	-24	4.4	-4	13	-1.5	2	-1.7	-19	2
O=C1Nc2ccccc2C12Nc1ccccc1-c1nc3ccccc3n12 (configuration not stated)	x	x	x	9	-6	-0.1	4	-4.1	14	-4
COc1cc(C2OCC3C(c4cc(OC)c(OC)c(OC)c4)OCC23)cc(OC)c1OC (configuration not stated)	x	x	x	2	0	1.1	-10	7.6	7	x
O=c1cc(N2CCOCC2)[nH]c(=O)n1-c1ccc(Br)cc1	11	9	0.1	16	-5	-0.1	-2	2.3	-2	x

Other entries:
SMILES	rRNA inh HTS	rRNA inh HTS OD600	rRNA inh HTS RFP	ALR H2O2 inh	B2AR ag	A1 inh	T cruzi inh	LANA-H2A inh	Calb FLC	Beta apoptosis
COc1cc(/C=C/C(=O)OCC(=O)N2CC(=O)Nc3ccccc32)ccc1O	-3	-2	-3.5	96*	12	0.3	0	1.1	1	-2
CC(C1CC1)N(Cc1ccccc1)C(=O)NC(=O)c1ccc(F)cc1 (configuration not stated)	4	-11	1.1	x	0	0.7	8	1.2	6	-10
COC(=O)c1sc(NC(=O)CSc2nnnn2-c2ccc(C)cc2C)nc1C	x	x	x	-19	0	-0.8	-16	-2.9	3	-5
O=C(Cc1nn[nH]n1)Nc1ccc(F)cc1F	23	12	5.2	-4	4	-2.1	-25	-0.9	-8	-2
CCOc1cc(N2CCOCC2)c(OCC)cc1NC(=O)COC(=O)COc1cc(C)cc(C)c1	7	4	0.8	-12	0	-0.1	-2	6.0	4	2
CCCn1c(NCCO)nc2ccccc21	14	6	-4.5	21	-1	0.7	-11	2.5	-2	-2
O=C(Nc1ccccc1Cl)C1C2CCC3C(CCC21)C3(Cl)Cl (configuration not stated)	5	8	-2.4	2	2	0.5	-8	2.3	-15	-2
Cn1c(/C(C#N)=C(\O)c2ccc(S(=O)(=O)N3CCCCC3)cc2)nc2ccccc21	7	-6	-3.6	-18	-4	1.2	3	0.6	u	10
Cc1ccc(S(=O)(=O)c2nc(Nc3ccccc3C#N)sc2Cl)cc1	10	9	0.7	-4	4	-0.5	-15	2.6	-6	-5

Bioassay records (PubChem)
